Screening data as filed in PubChem.
RN4220 kill = growth inhibition of S. aureus RN4220, primary screen, OD600 | inhibition, % (test concentration not listed) | AID 1259311, 2017 | 330,000 compounds, 0.33% hits | 16 h;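 active means z-score of -3 or lower and OD600 up to 0.18 on both plates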;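 further: plate controls were untreated cells for no effect and reference antibiotic for full effect; stock transfer was 100 nL into about 80 µL; one replicate is shown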
ugtP null kill = growth inhibition of ugtP-null S. aureus, primary screen, RN4220 ugtP deletion, OD600; 16 h; some inactives read as strong as hits; AID 1259309, 2017; 330,000 compounds, 0.54% hits; growth inhibition, % (no concentration beside the values);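 active means z-score under -3 and OD600 up to 0.15 on both plates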;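 further: plate controls were untreated wells for no effect and antibiotic for full effect; wells of about 80 µL received 100 nL stock; the first replicate is given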
PrP UTR inh = inhibition of PrP 5' UTR reporter expression | cell-based PrP 5' UTR mRNA reporter, plate reader | inhibition, % (test concentration not listed) | 340,000 compounds, 0.35% hits;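 active means every replicate at 50% or more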;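 further: 0 = median of the neutral control wells; tested in H4 reporter cells; numbers are from one replicate; inactives centre near -14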
Mtb hypoxia rep = PubChem AID 1159583; M. tuberculosis hypoxia-regulated fluorescent reporter, fluorescence; fluorescence inhibition, % (concentration not given with the values); 300,000 compounds, 0.1% hits;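 active means 35 to 45% if threefold the growth effect, above 45% if 1.5-fold the growth effect; inactive means the rest, general growth blockers included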;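 further: wells of about 50 µL received 100 nL stock; 0% = vehicle wells and 100% = reference inhibitor wells; whole bacteria with a GFP reporter of the hypoxia response; strong numbers were not always called active; many hits fall short of the cut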
BJeLR lethal = MLPCN primary cell-based screen for lethality selective to Ras in HRASV12 cells; BJeLR (HRASV12) viability, CellTiter-Glo ATP luminescence, 48 h; reference of the scale not given here; inhibition, % (test concentration not listed); 300,000 compounds, 0.17% hits;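 active means replicate mean above 50%; inconclusive means above 50% but judged a plate artefact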;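 further: 50 nL library stock added to about 25 µL; numbers are from one replicate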
Autofluor counter = compound fluorescence in toxin protease inhibitor counterscreen | compound autofluorescence counterscreen, microsphere flow cytometry; active compounds read high | fluorescence intensity (concentration not given with the values) | 360,000 compounds, 3.1% hits | AID 624483;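 active means at least 3 SD above the mean of all compounds, about 16000 in these data; inconclusive means too few beads counted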;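 further: 100 nL of 1 mM stock went into each well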
Mtb hypoxia rep growth = second read-out of Mtb hypoxia rep, no call of its own (marks repeat the call); growth inhibition, %; measured here: M. tuberculosis growth (absorbance);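 0% = vehicle and 100% = reference antibiotic; read after six days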
Starred values were filed as active, the others as inactive. Rows are unselected; about 3.9% have a hit in one of these screens.

What do the screens show for `COc1ccc(CCNC(=O)COC(=O)Cc2cccc3ccccc23)cc1`?
RN4220 kill: 7.5; ugtP null kill: 6.5; PrP UTR inh: -25.5; Mtb hypoxia rep: 7.1; BJeLR lethal: 13.9; Autofluor counter: 2176; Mtb hypoxia rep growth: -4.8

How did CC1Oc2ccccc2N(CC(=O)Nc2ccc3c(c2)OCO3)C1=O (stereo not drawn) do in these assays?
RN4220 kill: 4.1; ugtP null kill: -4.9; PrP UTR inh: -14.9; Mtb hypoxia rep: 8.3; BJeLR lethal: -4.3; Autofluor counter: 11069; Mtb hypoxia rep growth: 2.2

Results for O=C(COc1ccccc1)N1CCCCCCC1 ?
RN4220 kill: 0.5; ugtP null kill: 8.6; PrP UTR inh: -16.3; BJeLR lethal: -5.6; Autofluor counter: 3839

Results for CCOC(=O)CSCc1c(C#N)c2ccccc2n1C ?
RN4220 kill: 1.0; ugtP null kill: 1.4; PrP UTR inh: -28.9; Mtb hypoxia rep: 11.0; Autofluor counter: 4626; Mtb hypoxia rep growth: -4.7

How did Cc1cc(-c2ccc(C)c(S(=O)(=O)N3CCN(c4ccc([N+](=O)[O-])cc4)CC3)c2)on1 do in these assays?
RN4220 kill: 5.6; ugtP null kill: 3.8; PrP UTR inh: -0.8; Mtb hypoxia rep: 1.3; BJeLR lethal: -2.5; Autofluor counter: 5979; Mtb hypoxia rep growth: -0.9

Results for O=S1(=O)CCN(OCc2ccc(Cl)cc2)CC1 ?
RN4220 kill: -0.4; ugtP null kill: 8.4; PrP UTR inh: -1.0; Mtb hypoxia rep: 6.9; BJeLR lethal: 7.5; Autofluor counter: inconclusive; Mtb hypoxia rep growth: 9.8

Results for CC(NC(=O)C(=O)N/N=C\c1cccc([N+](=O)[O-])c1)c1ccccc1 (stereo not drawn) ?
PrP UTR inh: -10.0; BJeLR lethal: -7.0; Autofluor counter: 4521

How did Cc1cccc(N2CN=c3s/c(=C\c4ccncc4)c(=O)n3C2)c1 do in these assays?
PrP UTR inh: -2.3; BJeLR lethal: 7.2; Autofluor counter: 2412

What do the screens show for `COc1ccc(S(=O)(=O)N2CCCC2CNC(=O)c2cccc(OC)c2)cc1` (stereo not drawn)?
RN4220 kill: 0.0; ugtP null kill: -0.5; PrP UTR inh: -6.5; Mtb hypoxia rep: 2.7; BJeLR lethal: 1.1; Autofluor counter: 7995; Mtb hypoxia rep growth: 4.4

What do the screens show for `CCN(CC)C(=O)n1nc(C)c(CN2C(=O)c3ccccc3C2=O)c1C`?
RN4220 kill: 4.1; ugtP null kill: -0.3; PrP UTR inh: -13.1; Mtb hypoxia rep: 10.9; BJeLR lethal: -12.2; Autofluor counter: 9352; Mtb hypoxia rep growth: 5.6

How did O=S(=O)(NCc1ccc(F)cc1)c1ccc(-n2cnnn2)cc1 do in these assays?
RN4220 kill: 1.2; ugtP null kill: 0.2; PrP UTR inh: -16.7; Mtb hypoxia rep: -11.6; BJeLR lethal: -2.3; Autofluor counter: 4416; Mtb hypoxia rep growth: -9.2

How did O=C(CN1C(=O)CSCC1=O)NCc1ccc(F)cc1 do in these assays?
RN4220 kill: 3.1; ugtP null kill: 6.8; PrP UTR inh: -22.5; Mtb hypoxia rep: -0.9; BJeLR lethal: -0.3; Autofluor counter: 2550; Mtb hypoxia rep growth: 2.3

How did CN1CCN(C(=O)/C(=C\c2cccs2)NC(=O)c2ccccc2)CC1 do in these assays?
RN4220 kill: 2.0; ugtP null kill: 6.1; PrP UTR inh: -5.8; Mtb hypoxia rep: 2.6; BJeLR lethal: -2.5; Autofluor counter: 5524; Mtb hypoxia rep growth: 3.6

Results for CCn1ccnc1CN(C)Cc1nc(-c2cccc(Cl)c2)no1 ?
RN4220 kill: 2.8; ugtP null kill: 3.6; PrP UTR inh: -8.9; Mtb hypoxia rep: 11.5; BJeLR lethal: -8.7; Autofluor counter: 4674; Mtb hypoxia rep growth: 0.6

How did N#C/C(=C\c1ccccc1Cl)C(=O)Nc1ccccn1 do in these assays?
RN4220 kill: 3.3; ugtP null kill: 5.6; Mtb hypoxia rep: -7.3; BJeLR lethal: 5.0; Autofluor counter: 3192; Mtb hypoxia rep growth: -5.4

Results for COc1ccc(N2CCN(C(=O)C3CCCN(c4ncnc5c4nc4n5CCCCC4)C3)CC2)cc1 (stereo not drawn) ?
RN4220 kill: 6.1; ugtP null kill: 15.4; PrP UTR inh: 1.1; Mtb hypoxia rep: 4.4; BJeLR lethal: 7.7; Autofluor counter: 4143; Mtb hypoxia rep growth: -2.2

How did CCOC(=O)Nc1ccc(=O)n(Cc2c(Cl)cccc2Cl)c1 do in these assays?
RN4220 kill: 3.6; ugtP null kill: -1.3; PrP UTR inh: 3.7; Mtb hypoxia rep: 7.7; BJeLR lethal: -11.6; Autofluor counter: 9478; Mtb hypoxia rep growth: 8.3

Results for COc1ccc(-c2noc(CCC(=O)N3CCN(c4ccccc4OC)CC3)n2)cc1 ?
RN4220 kill: 4.1; ugtP null kill: 4.2; PrP UTR inh: -6.1; Mtb hypoxia rep: -7.2; Autofluor counter: 4120; Mtb hypoxia rep growth: 6.6

Results for N/C(Cc1ccc([N+](=O)[O-])cc1)=N\OC(=O)c1ccc2ccccc2c1 ?
PrP UTR inh: -25.4; BJeLR lethal: 2.2; Autofluor counter: 3157

Results for COCCOC(=O)c1c(C)n(C)c2ccc(OC(=O)c3ccccc3OC)cc12 ?
RN4220 kill: 6.8; ugtP null kill: 4.1; PrP UTR inh: -11.5; Mtb hypoxia rep: 2.9; BJeLR lethal: -1.9; Autofluor counter: 3775; Mtb hypoxia rep growth: 6.1

How did Cc1c(N=C2NC(=O)/C(=C/c3cccc([N+](=O)[O-])c3)S2)c(=O)n(-c2ccccc2)n1C do in these assays?
RN4220 kill: 3.5; ugtP null kill: 1.1; Mtb hypoxia rep: 7.5; BJeLR lethal: -0.5; Mtb hypoxia rep growth: 4.0

What do the screens show for `COc1cccc(NC(=O)N(C2CCCCC2)C(C)c2cccs2)c1` (stereo not drawn)?
RN4220 kill: 1.1; ugtP null kill: 16.7; PrP UTR inh: -17.1; Mtb hypoxia rep: 12.8; Autofluor counter: 19720*; Mtb hypoxia rep growth: 7.7

Results for CCCc1nc(Nc2nc3ccccc3o2)nc(C)c1C(=O)OCC ?
RN4220 kill: 2.7; ugtP null kill: 0.7; PrP UTR inh: -89.7; Mtb hypoxia rep: 5.3; BJeLR lethal: -1.9; Autofluor counter: 4074; Mtb hypoxia rep growth: 6.7

How did COc1cc(NS(=O)(=O)c2ccc(NC(=S)NC(=O)c3ccco3)cc2)ncn1 do in these assays?
RN4220 kill: 8.9; ugtP null kill: 15.3; PrP UTR inh: -5.2; Mtb hypoxia rep: -7.0; BJeLR lethal: -6.9; Autofluor counter: 4695; Mtb hypoxia rep growth: 10.8

What do the screens show for `CCn1c(=O)c(CCC(=O)NCC2CCCO2)c(C)c2c(C)nn(-c3ccc(C)cc3)c21` (stereo not drawn)?
PrP UTR inh: -4.8; BJeLR lethal: 3.1; Autofluor counter: 4176

How did CCN(CC)S(=O)(=O)c1ccc2c(c1)nc(SCC(=O)NC1CC1)n2-c1ccccc1OC do in these assays?
RN4220 kill: -15.4; ugtP null kill: -1.7; PrP UTR inh: -12.4; Mtb hypoxia rep: 2.2; BJeLR lethal: -1.9; Autofluor counter: 2814; Mtb hypoxia rep growth: 5.7

Results for CCOc1ccc(-c2nnc(NC3=NCCCCC3)o2)cc1 ?
RN4220 kill: 8.7; ugtP null kill: 2.9; PrP UTR inh: -75.3; Mtb hypoxia rep: 7.2; BJeLR lethal: -8.1; Autofluor counter: 2904; Mtb hypoxia rep growth: 7.2

Results for O=C(NCC1CCCO1)c1ccc(NC(=O)c2cccc([N+](=O)[O-])c2)cc1 (stereo not drawn) ?
RN4220 kill: -0.1; ugtP null kill: 10.1; PrP UTR inh: -12.5; Mtb hypoxia rep: 10.2; BJeLR lethal: 4.2; Autofluor counter: 4294; Mtb hypoxia rep growth: 2.5

How did CCOc1ccc(NC(=O)C(CC(=O)O)Cc2ccc(C)cc2)cc1 (stereo not drawn) do in these assays?
RN4220 kill: 0.9; ugtP null kill: 11.3; PrP UTR inh: -16.9; Mtb hypoxia rep: 9.1; BJeLR lethal: 9.2; Autofluor counter: 4112; Mtb hypoxia rep growth: 1.3

How did Cc1ccnc(NC(=O)C(C)N2C(=O)c3ccccc3C2=O)c1 (stereo not drawn) do in these assays?
RN4220 kill: 3.8; ugtP null kill: 7.8; PrP UTR inh: -1.1; Mtb hypoxia rep: -9.5; BJeLR lethal: 7.0; Autofluor counter: 4722; Mtb hypoxia rep growth: -5.5

Retrieved by compound from the entries so far:
How did Cc1c(N=C2NC(=O)/C(=C/c3cccc([N+](=O)[O-])c3)S2)c(=O)n(-c2ccccc2)n1C do in these assays?
RN4220 kill: 3.5; ugtP null kill: 1.1; Mtb hypoxia rep: 7.5; BJeLR lethal: -0.5; Mtb hypoxia rep growth: 4.0

Results for CCCc1nc(Nc2nc3ccccc3o2)nc(C)c1C(=O)OCC ?
RN4220 kill: 2.7; ugtP null kill: 0.7; PrP UTR inh: -89.7; Mtb hypoxia rep: 5.3; BJeLR lethal: -1.9; Autofluor counter: 4074; Mtb hypoxia rep growth: 6.7

New compounds follow
How did Cc1cc(NC(=O)COC(=O)C2CC(=O)N(c3cccc(C)c3C)C2)no1 (stereo not drawn) do in these assays?
RN4220 kill: 1.0; ugtP null kill: 10.8; PrP UTR inh: -14.9; Mtb hypoxia rep: 6.4; BJeLR lethal: -4.2; Autofluor counter: 3390; Mtb hypoxia rep growth: -0.9

Results for COc1ccccc1NC(=O)N1CCCC1C(=O)NCCc1ccccc1 (stereo not drawn) ?
RN4220 kill: 4.6; ugtP null kill: 8.4; PrP UTR inh: -20.9; Mtb hypoxia rep: 10.9; BJeLR lethal: -6.0; Autofluor counter: 4157; Mtb hypoxia rep growth: 6.0

How did COCCn1c(=N)c(S(=O)(=O)c2ccc(F)cc2)cc2c(=O)n3cccc(C)c3nc21 do in these assays?
RN4220 kill: -1.0; ugtP null kill: 0.1; PrP UTR inh: -10.9; Mtb hypoxia rep: -6.1; BJeLR lethal: 5.1; Autofluor counter: 5545; Mtb hypoxia rep growth: -0.8

How did COc1ccc(CCn2c(O)c(C=NCc3ccc4c(c3)OCO4)c(=O)[nH]c2=O)cc1OC do in these assays?
RN4220 kill: 2.9; ugtP null kill: -0.4; PrP UTR inh: -21.1; Mtb hypoxia rep: 14.4; BJeLR lethal: 1.9; Autofluor counter: 9798; Mtb hypoxia rep growth: 6.5

How did Cc1ccc(C2C(C(=O)c3sc(C)nc3C)=C(O)C(=O)N2CCN2CCOCC2)o1 (stereo not drawn) do in these assays?
RN4220 kill: -12.0; ugtP null kill: 1.1; PrP UTR inh: 6.1; Mtb hypoxia rep: 4.0; BJeLR lethal: 1.2; Autofluor counter: 2383; Mtb hypoxia rep growth: -6.5

How did COC(=O)CC1(c2ccc(OC)cc2)C(=O)c2ccccc2C1=O do in these assays?
RN4220 kill: 7.6; ugtP null kill: 0.8; PrP UTR inh: -13.4; Mtb hypoxia rep: 5.2; BJeLR lethal: 3.0; Autofluor counter: 4649; Mtb hypoxia rep growth: -0.5

How did O=S(=O)(Nc1ccc(Cl)cc1)c1cccc2nsnc12 do in these assays?
RN4220 kill: 4.6; ugtP null kill: 13.0; PrP UTR inh: -21.8; Mtb hypoxia rep: 1.5; BJeLR lethal: -3.2; Autofluor counter: 3686; Mtb hypoxia rep growth: -0.1

Results for CN(C)CCn1c2c(c(SCC(=O)NCc3ccccc3)nc1=O)CCCC2 ?
RN4220 kill: -0.8; ugtP null kill: 3.2; PrP UTR inh: -13.2; Mtb hypoxia rep: 11.0; BJeLR lethal: 9.3; Autofluor counter: inconclusive; Mtb hypoxia rep growth: 16.2

Results for Cc1ccc(-n2c(-c3ccncc3)n[nH]c2=S)cc1 ?
RN4220 kill: 2.5; ugtP null kill: 4.2; PrP UTR inh: -16.9; Mtb hypoxia rep: -4.8; BJeLR lethal: 1.9; Autofluor counter: 4300; Mtb hypoxia rep growth: -15.6

How did Cc1cccc(C(C)(C)C)c1OCCn1ccnc1 do in these assays?
RN4220 kill: -1.6; ugtP null kill: -2.5; PrP UTR inh: -11.5; Mtb hypoxia rep: 21.9; BJeLR lethal: 9.9; Autofluor counter: 3254; Mtb hypoxia rep growth: 18.1

How did C=CCn1c(=NC(=O)c2ccco2)sc2cc(C(=O)OCC)ccc21 do in these assays?
RN4220 kill: 9.7; ugtP null kill: 2.4; PrP UTR inh: -18.9; Mtb hypoxia rep: 6.2; BJeLR lethal: 2.3; Autofluor counter: 2605; Mtb hypoxia rep growth: 6.2
